Screens from PubChem BioAssay.
AF4-AF9 inh – inhibitors of AF4 peptide binding to AF9, primary screen, biochemical, AlphaScreen, biotin-AF4 peptide, FLAG-AF9, single point; inhibition, % at 10 µM; 350,000 compounds, 0.47% hits; Protein AF-9 (Homo sapiens), P42568; AID 651704, 2012;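 active = every replicate reaching a set inhibition limit, whatever the replicate mean, cut at about 25% in these data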;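 note: 0% = plate neutral control median and 100% = total signal loss; the record names both 10 and 1 µM as test concentration; the first replicate is given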
Target sequence (P42568 whole entry, looked up): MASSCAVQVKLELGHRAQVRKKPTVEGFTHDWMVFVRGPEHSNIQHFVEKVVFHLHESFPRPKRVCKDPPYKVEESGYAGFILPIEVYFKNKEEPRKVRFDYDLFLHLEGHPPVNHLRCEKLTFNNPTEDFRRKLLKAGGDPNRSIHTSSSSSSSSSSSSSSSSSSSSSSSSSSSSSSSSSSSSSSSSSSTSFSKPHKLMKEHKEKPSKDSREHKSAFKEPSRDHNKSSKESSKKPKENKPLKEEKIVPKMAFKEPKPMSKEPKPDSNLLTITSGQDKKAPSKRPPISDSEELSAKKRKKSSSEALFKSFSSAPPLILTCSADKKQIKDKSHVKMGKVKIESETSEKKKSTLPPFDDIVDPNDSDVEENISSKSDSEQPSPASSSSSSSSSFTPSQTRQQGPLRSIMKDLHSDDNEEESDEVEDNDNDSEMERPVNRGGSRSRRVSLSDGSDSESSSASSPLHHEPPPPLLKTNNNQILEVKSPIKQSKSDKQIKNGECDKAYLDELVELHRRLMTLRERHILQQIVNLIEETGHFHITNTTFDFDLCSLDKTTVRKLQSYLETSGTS
Ecoli rRNA inh – reduced GFP signal of wild-type E. coli, primary screen, bacterial rRNA inhibitor project, GFP/RFP fluorescence, OD600, single point. AID 720706, 2013. E. coli WT GFP vs humanized-ribosome RFP mutants, 24 h; active compounds read low; DMSO median 0, no signal -100. 350,000 compounds, 1.6% hits. GFP signal change (wild-type ribosome), % (concentration not given with the values);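 active = significant combined selectivity score with lowered wild-type GFP, culture density cut under 30%, mutant RFP and density less affected; inactive = any of these conditions unmet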; note: one replicate is shown; some compounds called inactive have numbers as strong as hits
Ecoli rRNA inh OD600 – further read-out of Ecoli rRNA inh, marked with its call; OD600 change, %; measured here: OD600 growth;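 optical density of the mix in the first replicate; 0 = DMSO median and -100 = no signal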
Ecoli rRNA inh RFP – recorded beside Ecoli rRNA inh, whose call it bears; RFP signal change, %; measured here: RFP humanized mutant strains;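 first replicate; 0 = DMSO median and -100 = no signal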
Starred values were filed as active, the others as inactive. Some of the compounds tested, so the mix of outcomes need not match the whole.

Ecoli rRNA inh	Ecoli rRNA inh RFP	AF4-AF9 inh	Ecoli rRNA inh OD600	SMILES
-0.1	-5.4	-11.9	16.8	O=C(C[C@H]1C[C@H]2c3cc(NC(=O)c4ccc5c(c4)OCO5)ccc3O[C@H]2[C@@H](CO)O1)NCCc1ccccc1
-9.0	1.5	-5.2	-11.8	Cc1ccc(S(=O)(=O)N(C)C[C@H]2Oc3c(NC(=O)Nc4ccc5c(c4)OCO5)cccc3C(=O)N([C@@H](C)CO)C[C@H]2C)cc1
4.4	-1.1	1.2	2.2	C[C@@H]1CN([C@H](C)CO)C(=O)c2cccc(NC(=O)c3ccc(-c4nccs4)cc3)c2O[C@H]1CN(C)Cc1ccc(-c2ccccc2)cc1
-59.3	-8.8	18.3	-71.3	O=C(c1cccc(F)c1)N1CCCCN2[C@H](CO)[C@@H](c3ccc(/C=C/c4ccccc4)cc3)[C@H]2C1
0.5	-1.4	-4.7	8.1	C[C@H](CO)N1C[C@H](C)[C@H](CN(C)S(=O)(=O)c2cccs2)Oc2ncc(C#CC(C)(C)O)cc2C1=O
-7.5	11.3	1.6	-14.8	COc1ccc(CN(C)C[C@@H]2Oc3ccc(NC(=O)Nc4ccccc4)cc3CC(=O)N([C@H](C)CO)C[C@H]2C)cc1
-0.2	2.6	1.0	-2.3	Cc1noc(C)c1NC(=O)Nc1ccc2c(c1)C(=O)N([C@H](C)CO)C[C@H](C)[C@H](CN(C)S(=O)(=O)c1ccc(Cl)cc1)O2
-10.7	10.3	-1.0	-6.2	O=C(c1cccc(F)c1)N1CCCCN2[C@H](CO)[C@@H](c3ccc(/C=C/c4ccccc4)cc3)[C@@H]2C1
5.3	1.6	-3.6	9.6	COc1ccc(S(=O)(=O)N(C)C[C@H]2OCCCC[C@@H](C)Oc3ccc(NC(=O)c4ccccc4)cc3C(=O)N([C@@H](C)CO)C[C@@H]2C)cc1
2.9	0.7	-1.6	1.0	O=C(C[C@@H]1CC[C@@H](NC(=O)C2CCC2)[C@@H](CO)O1)NCCCN1CCOCC1
-6.3	-1.9	-3.1	-7.6	CCC(=O)N1[C@@H]2c3ccc(C4=CCCCC4)c(=O)n3C[C@H]1[C@H](CO)[C@H]2C(=O)N[C@H](C)c1ccccc1
7.1	-1.4	-2.7	9.2	CNC[C@@H]1Oc2ccc(NS(=O)(=O)c3ccc(C)cc3)cc2CC(=O)N([C@@H](C)CO)C[C@H]1C
3.3	-5.2	0.7	6.2	O=C(Nc1ccccc1)N1CC(=O)N2[C@H](CO)[C@H](c3ccc(C#CC4CC4)cc3)[C@H]2C1
-46.1	5.3	3.1	-60.9	C[C@H](CO)N1C[C@H](C)[C@H](CN(C)CC2CCCCC2)OCCCC[C@H](C)Oc2ccc(NC(=O)Nc3ccc(F)cc3)cc2C1=O
-7.7	-3.7	-1.2	-0.5	C[C@@H]1CCCCO[C@@H](CN(C)Cc2ccc3c(c2)OCO3)[C@H](C)CN([C@@H](C)CO)C(=O)c2cc(NC(=O)CCC(F)(F)F)ccc2O1
10.2	6.6	-3.2	22.1	CC(=O)C(=Cc1ccc(-c2ccccc2)cc1)C(=O)c1ccccc1
0.4	-3.9	-2.4	4.1	CC(C)NC(=O)Nc1ccc2c(c1)C(=O)N([C@@H](C)CO)C[C@@H](C)[C@@H](CN(C)C(=O)NC(C)C)OCCCC[C@H](C)O2
1.2	0.9	-3.0	-12.5	C[C@@H]1CCCCO[C@@H](CN(C)C(=O)c2ccccc2)[C@@H](C)CN([C@@H](C)CO)C(=O)c2cc(NC(=O)Cc3ccccc3)ccc2O1
-1.8	-0.2	-1.1	-2.6	C[C@@H]1CCCCO[C@H](CN(C)S(=O)(=O)c2ccc(Cl)cc2)[C@H](C)CN([C@@H](C)CO)C(=O)c2cc(NC(=O)C3CCCCC3)ccc2O1
-39.5	7.5	-7.6	-60.2	O=C(Cc1ccccc1)N1CC(=O)N2[C@@H](CO)[C@H](c3ccc(C#Cc4ccccc4)cc3)[C@@H]2C1
10.7	0.6	-2.3	9.8	COc1ccc(-c2ccc(CN3C(C(C)C)C(=O)N(Cc4cn(CC5CCCCC5)nn4)CCS3(=O)=O)cc2)cc1 (configuration not stated)
4.5	6.9	13.1	-0.7	CNC[C@H]1Oc2cc(C#CC3CCCCC3)ccc2S(=O)(=O)N([C@@H](C)CO)C[C@H]1C
-4.9	1.2	-0.6	-6.0	CCC(=O)N1C[C@@H](C)[C@H](OC)CN(C)C(=O)c2cc(NC(=O)Nc3cccc(F)c3)ccc2OC[C@H]1C
1.4	-5.5	-1.8	0.0	C[C@H](CO)N1C[C@H](C)[C@H](CN(C)CC2CC2)Oc2c(NC(=O)c3cnccn3)cccc2C1=O
-0.3	4.2	1.2	-0.7	C[C@@H]1CN([C@H](C)CO)C(=O)Cc2cc(NC(=O)Nc3ccc(F)cc3)ccc2O[C@@H]1CN(C)S(=O)(=O)c1ccc(F)cc1
-5.6	0.3	1.2	-3.1	C[C@H](CO)N1C[C@H](C)[C@@H](CN(C)Cc2ccc3c(c2)OCO3)Oc2cc(-c3cccc(C(=O)N(C)C)c3)ccc2S1(=O)=O
-25.6	15.5	2.7	-36.4	CCC(c1nnnn1-c1ccc2c(c1)OCCO2)N1CCc2ccccc2C1 (configuration not stated)
-4.0	3.0	-2.6	5.5	COc1ccc(C(C)(NC(C)=O)c2nc(-c3cccc4cccnc34)cs2)cc1 (configuration not stated)
5.4	-1.4	-1.4	-23.9	COc1cccc(-c2ccc(CN3C(C(C)C)C(=O)N(Cc4cn(CCC5OCCO5)nn4)CCS3(=O)=O)cc2)c1OC (configuration not stated)
3.0	-0.7	-1.0	8.0	C[C@@H]1CCCCO[C@H](CN(C)C(=O)c2ccncc2)[C@@H](C)CN([C@@H](C)CO)C(=O)c2cc(NC(=O)c3ccncc3)ccc2O1

3 of these compounds in a different format:
Below each compound: Ecoli rRNA inh, Ecoli rRNA inh RFP, AF4-AF9 inh, Ecoli rRNA inh OD600
> C[C@H](CO)N1C[C@H](C)[C@@H](CN(C)Cc2ccc3c(c2)OCO3)Oc2cc(-c3cccc(C(=O)N(C)C)c3)ccc2S1(=O)=O
→ -5.6, 0.3, 1.2, -3.1
> CCC(c1nnnn1-c1ccc2c(c1)OCCO2)N1CCc2ccccc2C1 (configuration not stated)
→ -25.6, 15.5, 2.7, -36.4
> C[C@@H]1CN([C@H](C)CO)C(=O)Cc2cc(NC(=O)Nc3ccc(F)cc3)ccc2O[C@@H]1CN(C)S(=O)(=O)c1ccc(F)cc1
→ -0.3, 4.2, 1.2, -0.7

(continued)
Ecoli rRNA inh	Ecoli rRNA inh RFP	AF4-AF9 inh	Ecoli rRNA inh OD600	SMILES
14.9	11.7	0.3	10.2	O=C(Nc1cccc(Cc2ccccc2)c1)Nc1ccc2nc([C@@H]3O[C@H](CO)[C@@H](O)[C@H](O)[C@H]3O)[nH]c2c1
-5.8	8.2	-52.9	-15.1	Cc1ccc(-c2csc(C(O)(c3ccccc3)C(F)(F)F)n2)cc1C (configuration not stated)
7.8	-0.1	-0.9	4.2	COc1ccc(CN(C)C(=O)[C@H]2O[C@@H](n3cnc4c(N)ncnc43)[C@H](O)[C@@H]2O)cc1OC
0.4	-0.1	-1.8	5.1	COc1cccc(C(=O)Nc2ccc3c(c2)C(=O)N(C)[C@H]2CC[C@H](CC(=O)N[C@H](C)c4ccccc4)O[C@H]2CO3)c1
2.2	6.8	-6.2	-1.5	CNC[C@H]1Oc2cc(C#CC3CCCC3)ccc2S(=O)(=O)N([C@@H](C)CO)C[C@@H]1C
1.5	-0.8	1.3	-0.1	CCOc1ccc(S(=O)(=O)N2CCOCC2)cc1NC(=O)CSCC(=O)Nc1ccc(OC)cc1
-45.5	3.0	-0.2	-64.3	CCCC#Cc1ccc([C@@H]2[C@H]3CN(C(=O)c4ccc(F)cc4)CC(=O)N3[C@H]2CO)cc1
1.7	1.1	-1.4	-3.7	C[C@@H](NC(=O)[C@H]1[C@H](CO)[C@H]2Cn3c(ccc(-c4ccncc4)c3=O)[C@H]2N1C)c1ccccc1
-18.4	2.5	10.0	-44.4	O=C(c1cccnc1)N1CC(=O)N2[C@H](CO)[C@@H](c3ccc(C#CCC4CCCC4)cc3)[C@H]2C1
-2.7	7.9	3.7	-6.6	COc1ccc(NC(=O)N(C)C[C@@H]2Oc3cc(-c4ccc(C)cc4)ccc3S(=O)(=O)N([C@H](C)CO)C[C@H]2C)cc1
-4.0	-0.2	-2.0	-6.4	COC(=O)[C@@H]1[C@@H](CO)[C@@H]2Cn3c(cccc3=O)[C@@H]2N1CC1CCCCC1
-14.1	20.6	6.5	-45.0	COc1ccc(CN(C)C[C@@H]2Oc3ccc(NC(=O)Nc4ccc(OC)cc4)cc3CC(=O)N([C@H](C)CO)C[C@@H]2C)cc1
2.1	4.6	8.3	-7.6	C[C@H](CO)N1C[C@H](C)[C@@H](CN(C)Cc2ccc(Oc3ccccc3)cc2)Oc2ccc(NC(=O)CCC(F)(F)F)cc2C1=O
1.0	-1.1	-0.5	7.5	CN1C(=O)c2cc(NC(=O)c3ccc(F)cc3)ccc2OC[C@@H]2O[C@@H](CC(=O)O)CC[C@@H]21
0.2	1.5	1.6	4.2	C[C@@H]1CN([C@H](C)CO)C(=O)c2cccc(NS(=O)(=O)c3ccc(F)cc3)c2O[C@H]1CN(C)Cc1ccc(-c2ccccc2)cc1
-51.0	-16.4	1.2	-78.1	O=C1NC[C@H](CCCCN2C[C@H](Cc3ccccc3)N(CCc3ccc(O)cc3)C(=O)C2=O)N(CCC2CCCCC2)C1=O
0.7	0.2	15.2	8.7	C[C@@H]1CN([C@H](C)CO)S(=O)(=O)c2ccc(C#CCN(C)C)cc2O[C@@H]1CN(C)Cc1ccc2c(c1)OCO2
11.2	1.4	-1.4	9.7	C=CCN(CC=C)C[C@@H]1CSCCS(=O)(=O)N1
0.1	-2.4	-0.3	6.4	Cc1ccc(S(=O)(=O)N(C)C[C@H]2OCCCC[C@@H](C)Oc3ccc(NC(=O)Nc4ccc5c(c4)OCO5)cc3C(=O)N([C@H](C)CO)C[C@@H]2C)cc1
3.9	3.5	-1.6	3.1	CCC(=O)N1C[C@@H](C)[C@H](OC)CN(C)C(=O)c2cc(NC(=O)CC(F)(F)F)ccc2OC[C@@H]1C
-0.8	-1.3	1.5	-5.9	O=C(C[C@@H]1C[C@@H]2c3cc(NC(=O)C4CCC4)ccc3O[C@@H]2[C@@H](CO)O1)NCc1ccc2c(c1)OCO2
4.5	-1.4	-1.3	2.4	CCC(=O)N[C@H]1CC[C@@H](CC(=O)NCc2ccc(OC)cc2)O[C@H]1CO
0.2	-0.6	-1.6	3.1	C[C@@H](NC(=O)C[C@@H]1C=C[C@@H](NS(=O)(=O)c2cccc(F)c2)[C@H](CO)O1)c1ccccc1
-6.1	1.1	-2.4	-0.3	O=C(NC1CCCCC1)[C@@H]1[C@@H](CO)[C@@H]2Cn3c(cccc3=O)[C@H]1N2CC1CCCCC1
5.3	6.8	1.3	4.6	CC(=O)c1sc(Nc2ccc(Oc3ccccc3)cc2)nc1C
-4.9	-2.5	-5.4	-7.5	C[C@H]1CN([C@@H](C)CO)C(=O)c2cccc(NC(=O)C3CCOCC3)c2O[C@@H]1CN(C)C(=O)NC1CCCCC1
1.4	-2.5	-1.5	-0.5	C[C@@H]1CN([C@H](C)CO)C(=O)c2cc(NC(=O)Nc3cccc4ccccc34)ccc2O[C@H]1CN(C)S(=O)(=O)c1ccc(Cl)cc1
1.6	-2.5	-3.5	6.7	C[C@@H]1CN([C@H](C)CO)C(=O)c2cc(C#Cc3cccnc3)cnc2O[C@H]1CN(C)S(C)(=O)=O
0.1	-1.6	5.2	2.4	CC(C)CC#Cc1ccc([C@H]2[C@H]3CN(S(=O)(=O)c4ccc(F)cc4)CCCCN3[C@H]2CO)cc1
-7.5	-1.4	5.0	-15.8	CO[C@H]1CN(C)C(=O)c2cc(NC(=O)C3CC3)ccc2OC[C@H](C)N(Cc2ccc(F)cc2)C[C@@H]1C
-1.3	0.6	-0.4	3.1	C[C@@H]1CN([C@H](C)CO)C(=O)c2cc(NC(=O)c3ccccc3)ccc2O[C@@H](C)CCCCO[C@@H]1CN(C)S(=O)(=O)c1ccc(Cl)cc1
-41.3	17.5	4.9	-51.5	C[C@@H]1CN([C@@H](C)CO)S(=O)(=O)c2ccc(-c3ccccc3)cc2O[C@H]1CN(C)Cc1ccccn1
-3.2	-2.7	1.0	-1.8	O=C(Nc1ccccc1F)N[C@H]1CC[C@@H](CCNS(=O)(=O)c2ccc(Cl)cc2)O[C@@H]1CO
1.2	4.1	-2.6	-5.4	CO[C@H]1CN(C)C(=O)c2ccc(NC(=O)CC(F)(F)F)cc2OC[C@H](C)N(C(=O)c2ccccc2F)C[C@H]1C
0.7	0.2	3.9	-3.1	CN(C)C(=O)c1ccc(-c2ccc([C@@H]3[C@H](C#N)N(C(=O)C4CCCC4)[C@H]3CO)cc2)cc1
-6.1	0.0	-0.3	-9.5	O=C(C[C@@H]1C[C@H]2c3cc(NS(=O)(=O)c4ccc(F)cc4)ccc3O[C@H]2[C@@H](CO)O1)NCc1ccccc1
-3.3	1.4	-1.0	-1.4	CCCC#Cc1cnc2c(c1)C(=O)N([C@@H](C)CO)C[C@H](C)[C@H](CN(C)S(=O)(=O)c1ccccc1)O2
